Screening data from PubChem BioAssay.
KCNQ2 inh: KCNQ2 channel blockers in CHO-K1 cells – cell-based, FluxOR thallium flux, B-score, primary screen (AID 2156); hit rate 1.1% among 310,000; O88943; 20 min; active compounds read low; only compounds with negative scores are shown here; some inactives read as strong as hits; B-score at 10 µM;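 active = fluorescence ratio B-score at most minus 3 library SDs, with starting brightness B-score within 2 library SDs, cut at about -5.5 in these data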
Target sequence (O88943 whole entry, looked up): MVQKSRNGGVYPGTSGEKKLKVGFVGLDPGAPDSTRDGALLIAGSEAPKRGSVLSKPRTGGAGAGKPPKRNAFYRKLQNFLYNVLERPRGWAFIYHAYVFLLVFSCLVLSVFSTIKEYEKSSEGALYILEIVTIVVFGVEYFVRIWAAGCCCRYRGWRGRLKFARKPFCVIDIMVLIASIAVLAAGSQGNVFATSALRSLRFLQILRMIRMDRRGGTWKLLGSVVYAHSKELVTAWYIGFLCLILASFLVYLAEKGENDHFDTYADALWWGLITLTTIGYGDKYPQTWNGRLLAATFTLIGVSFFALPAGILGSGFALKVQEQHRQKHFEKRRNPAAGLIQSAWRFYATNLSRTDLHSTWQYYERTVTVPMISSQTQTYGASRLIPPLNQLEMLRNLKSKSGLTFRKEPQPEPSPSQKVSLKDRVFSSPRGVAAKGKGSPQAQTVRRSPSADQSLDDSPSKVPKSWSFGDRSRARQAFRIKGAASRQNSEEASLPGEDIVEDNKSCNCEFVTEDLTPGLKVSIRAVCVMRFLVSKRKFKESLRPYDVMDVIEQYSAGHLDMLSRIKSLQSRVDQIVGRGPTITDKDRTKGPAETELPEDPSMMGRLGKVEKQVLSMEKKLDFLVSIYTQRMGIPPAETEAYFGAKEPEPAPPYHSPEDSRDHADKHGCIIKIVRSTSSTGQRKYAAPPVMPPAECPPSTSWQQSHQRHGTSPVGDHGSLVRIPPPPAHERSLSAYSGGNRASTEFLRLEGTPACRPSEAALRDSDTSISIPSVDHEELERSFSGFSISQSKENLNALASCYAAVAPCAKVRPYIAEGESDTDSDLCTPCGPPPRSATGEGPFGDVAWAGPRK
KCNQ2 inh baseline: also measured in KCNQ2 inh; calls as there; B-score; measured here: initial fluorescence intensity artifact check;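 brightness before thallium and not channel activity; 0 = typical well and far values either way flag optical interference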
* = called active by the depositor; i = inactive. An excerpt; count on the stated rates, not on these rows.

#	smiles	KCNQ2 inh	KCNQ2 inh baseline
1	Cc1cc(F)c(F)c(C(=O)N2CCOCC2)c1	i	0.83
2	COc1ccc(NCc2nnc(SCC(=O)c3ccc(OC)cc3)n2C)cc1	i	0.8
3	O=C(CCn1cnc(-c2ccccc2)c1-c1ccccc1)N/N=C/c1ccccc1O	i	-0.91
4	COc1ccc(CCC(=O)N2CCN(c3ccc([N+](=O)[O-])cc3)CC2)cc1OC	i	-0.09
5	O=C(NCc1ccco1)/C(=C/c1ccco1)NC(=O)c1ccccc1	i	-0.55
6	Cc1ccc(CN2C(=O)C(Cc3ccccc3)Nc3ncnc(N4CCCCC4)c32)cc1 (stereo unspecified)	i	1.49
7	O=C(CN(C1CCCCC1)C1CCCCC1)N1CCc2ccccc2C1	-8.03*	-0.32*
8	O=C(c1cc(F)ccc1F)C1CCCN(C(=O)c2ccc3nccnc3c2)C1 (stereo unspecified)	i	1.86
9	CC(C)(C)C(=O)COC(=O)c1cc2ccccc2cc1O	i	0.38
10	Cc1ccc(NC(=S)N(Cc2ccccc2)C(C)C)cc1	i	0.97
11	CC(C)(O)C#Cc1ncc(C(F)(F)F)cc1Cl	i	0.49
12	Cc1cccc(N(C(=O)c2snc(C(N)=O)c2N)C(C(=O)NC2CCCC2)c2ccc(C)o2)c1 (stereo unspecified)	i	1.56

(next part)
#	smiles	KCNQ2 inh	KCNQ2 inh baseline
13	CCS(=O)(=O)c1nc(S(=O)(=O)c2ccc(Cl)cc2)c(N2CCc3ccccc3C2)s1	i	-1.22
14	CCOc1nc(-c2ccccc2)ccc1-c1noc(-c2ccncc2)n1	i	0.02
15	O=C(Nc1ccc2c(c1)OCO2)c1cc2nc(C3CC3)cc(C(F)(F)F)n2n1	i	-1.25
16	O=C(Nc1cc2c3c(c1)CC(=O)N3CCC2)c1ccccc1Br	i	-0.04
17	O=C(c1ccco1)N1CCN(Cc2ccc(Br)cc2)CC1	i	0.71
18	Cc1cccnc1NC(=S)Nc1ccc(F)cc1F	i	-2.38
19	Cc1cc(=O)[nH]c(Nc2ccc(C(=O)OC(C)C)cc2)n1	i	-0.25
20	Cc1ccc(-c2nnn(CC(=O)N(c3ccccc3F)C(CC(C)C)C(=O)NCC3CCCO3)n2)cc1 (stereo unspecified)	i	-1.84
21	CN1CCN(C(=O)C2=C[C@H](c3ccc4c(c3)OCO4)C[C@H](OCCCCO)O2)CC1	i	-0.38
22	O=C(NCCC(c1ccccc1)c1ccccc1)c1cccs1	i	1.29
23	COc1cc(C(=O)NCC(=O)N/N=C/c2cccc(OC(=O)c3ccco3)c2)cc(OC)c1OC	i	0.97
24	CC(=O)Nc1ccc(NC(=O)c2ccccc2F)cc1	i	3.72

6 entries from above, sorted by their value in KCNQ2 inh baseline, lowest first:
item	compound	KCNQ2 inh	KCNQ2 inh baseline
18	Cc1cccnc1NC(=S)Nc1ccc(F)cc1F	i	-2.38
15	O=C(Nc1ccc2c(c1)OCO2)c1cc2nc(C3CC3)cc(C(F)(F)F)n2n1	i	-1.25
19	Cc1cc(=O)[nH]c(Nc2ccc(C(=O)OC(C)C)cc2)n1	i	-0.25
17	O=C(c1ccco1)N1CCN(Cc2ccc(Br)cc2)CC1	i	0.71
22	O=C(NCCC(c1ccccc1)c1ccccc1)c1cccs1	i	1.29
24	CC(=O)Nc1ccc(NC(=O)c2ccccc2F)cc1	i	3.72

More compounds.
#	smiles	KCNQ2 inh	KCNQ2 inh baseline
25	C=CCn1c(SCc2ccccc2)nnc1-c1cccnc1	i	0.54
26	COC(=O)c1cc(OC)c(OC)cc1NC(=O)Cn1nnc(-c2ccccc2Cl)n1	i	0.29
27	Cc1cc(C)nc(NC2=NCC(=O)N2c2cccc(Cl)c2)n1	i	0.26
28	Cc1c(NC(=O)C(C)Sc2n[nH]c(N)n2)c(=O)n(-c2ccccc2)n1C (stereo unspecified)	i	-2.9
29	Cc1nc2ccccc2c(=O)n1NC(=O)c1ccccc1Cl	i	0.39
30	COc1ccc(N(C(=O)c2snc(C(N)=O)c2N)C(C(=O)NCc2ccc(F)cc2)c2ccc(C)o2)c(OC)c1 (stereo unspecified)	i	0.66
31	COc1ccc(N(C)C(=O)c2cc3c(Cl)nc4ccccc4c3s2)cc1	-9.52*	0.26*
32	O=C(c1cccs1)N1CCN(Cc2ccccc2)CC1	i	0.86
33	C/C(=N\NC(=S)NCc1ccccc1)c1ccco1	i	0.32
34	COCC1CCN(C(=O)c2ccc(OC3CCN(Cc4ccccn4)CC3)cc2)C1 (stereo unspecified)	i	1.04
35	CC(C)CN(C(=O)c1cccc(S(=O)(=O)N2CCCCC2)c1)C1CCS(=O)(=O)C1 (stereo unspecified)	i	-0.12
36	O=C(OCC#CCSc1nnc(-c2cccc3ccccc23)o1)c1cccs1	-5.79*	-1.09*

Next compounds:
#	smiles	KCNQ2 inh	KCNQ2 inh baseline
37	Cc1nnc2c(N3CCN(CCO)CC3)nc3ccccc3n12	i	0.68
38	CC(=O)c1c(C)nn(-c2ccccc2)c1C	i	-0.98
39	Cc1ccccc1CNC(=O)/C=C\C(=O)O	i	-1.57
40	CCOc1cc(C2C3=C(CCCC3=O)Nc3ccc4ncccc4c32)ccc1O (stereo unspecified)	i	1.28
41	Cc1ccc(CCNC(=O)C2CCCN(S(=O)(=O)c3c(C)nn(C)c3C)C2)cc1 (stereo unspecified)	i	-2.84
42	CN1CCN(C(=O)/C=C/c2ccc([N+](=O)[O-])o2)CC1	i	-0.52
43	CC(C)Oc1ccc(S(=O)(=O)N2CCCCC2)cc1NC(=O)CC1OC(=O)c2ccccc21 (stereo unspecified)	i	-0.21
44	COc1ccc(/C=C2\CCC(C3CCCC3)C2=O)cc1Cn1nc(C)cc1C (stereo unspecified)	i	0.56
45	COc1cc2c(cc1OC)CN(C(=O)c1ccc3[nH]c(C)c(C)c3c1)CC2	i	0.77
46	COC(=O)c1cc(S(=O)(=O)NCCCN2CCCC2=O)cn1C	i	0.24
47	CCC1CCC(C(=O)NC(CCSC)C(=O)NCCc2ccc(S(N)(=O)=O)cc2)CC1 (stereo unspecified)	i	1.8
48	O=C1CNC(=S)N1CCc1ccccc1Cl	i	-0.67

Carrying on:
#	smiles	KCNQ2 inh	KCNQ2 inh baseline
49	CC1CCN(C(=O)Cn2cc(C(=O)c3ccco3)c3ccccc32)CC1	i	-0.15
50	CCC(C)NCC(O)COCc1ccc(Cl)cc1 (stereo unspecified)	i	-2.29
51	O=C(c1ccc([N+](=O)[O-])cc1[N+](=O)[O-])N1CCc2ccccc21	i	0.14
52	COc1ccc(N(C(=O)c2cc3ccccc3oc2=O)C2C=CS(=O)(=O)C2)c(OC)c1 (stereo unspecified)	i	-0.2
53	O=C(CNc1cccc2ccccc12)N/N=C/c1ccc([N+](=O)[O-])cc1	i	-0.17
54	COc1ccc(CN2CCC(C(=O)N3CCN(c4ccccc4F)CC3)CC2)cc1OC	i	-0.21
55	CC(C)(C)C1CCC2(CC1)C(Nc1cccc(C(F)(F)F)c1)=NC(=S)N2CC#N (stereo unspecified)	i	-3.2
56	Cc1ccc(S(=O)(=O)c2c(C(=O)c3ccccc3)cnc3cc4c(cc23)OCCO4)cc1	i	-0.2
57	O=C(CN1CCN(C(=O)C2CCCO2)CC1)Nc1ccc(Cl)c(Cl)c1 (stereo unspecified)	i	1.36
58	O=C(COc1ccc(Cl)cc1)NCCc1ccccn1	i	-0.41
59	CC(C)Nc1cc(N2CCCC2)ccc1[N+](=O)[O-]	i	0.93
60	O=C1Nc2ccccc2S/C1=C/c1cccs1	i	-0.7

Next records follow.
#	smiles	KCNQ2 inh	KCNQ2 inh baseline
61	N#CCCc1cccc(CCC#N)c1	i	-1.03
62	CCOc1ccc(N(CC(=O)N2CCCCC2)S(=O)(=O)c2ccc(Cl)cc2)cc1	i	0.08
63	CC(=O)NCCc1nc2ccccc2n1Cc1ccc(C)cc1	i	-0.05
64	O=C(Cc1c[nH]c2ccccc12)NCc1ccncc1	i	3.63
65	Cc1cccc(C)c1NC(=O)CS(=O)CC(=O)Nc1ccc(F)cc1F (stereo unspecified)	i	-0.03
66	O=C(NC1CCCCC1)c1cc2nc3c(c(C(F)(F)F)n2n1)CCCC3	i	0.83
67	COc1ccccc1NC(=O)c1ccc(Cl)c(S(=O)(=O)N2CCOCC2)c1	i	1.76
68	Cc1cnc(=O)[nH]c1SCc1ccc(C(F)(F)F)cc1	i	-0.72
69	O=CN1CCN(c2ncnc3c2nnn3Cc2c(F)cccc2Cl)CC1	i	0.87
70	Cc1ccc(C)c(NC(=O)CN(C)C(=O)CCN2C(=O)c3ccccc3C2=O)c1	i	-0.34
71	CC(=O)Nc1cc(C(=O)NCCN2CCN(Cc3ccccc3)CC2)ccc1Sc1ccc(C)cc1	i	0.66
72	O=C(/C=C/c1ccc([N+](=O)[O-])cc1)NCCN1C(=O)S/C(=C\c2ccc(F)cc2)C1=O	i	0.03

Next section
#	smiles	KCNQ2 inh	KCNQ2 inh baseline
73	Cc1ccc2c(c1)nnn2C1CCN(CC(=O)Nc2ccc(F)cc2)CC1	i	0.99
74	CCOC(=O)C1(Cc2ccccc2)C(=O)N(CCCN(C)C)c2ccccc21 (stereo unspecified)	i	-0.34
75	Cc1ccc(C)c(N(CC(=O)NC2CCCC2)C(=O)c2oc(C(C)(C)C)cc2C)c1	-6.56*	0.57*
76	O=C(NCc1ccccn1)c1n[nH]c2ccccc12	i	-0.27
77	O=C(CCNC(=O)c1ccccc1)N/N=C/c1ccc([N+](=O)[O-])cc1	i	1.62
78	O=C(O)CC(C(=O)O)n1nc(-c2ccccc2)cc1-c1ccccc1 (stereo unspecified)	i	-2.46
79	CN1CCCC(OC(=O)c2cc(Br)ccc2Cl)C1 (stereo unspecified)	i	-0.89
80	CCOC(=O)c1ccc2ncc(C(=O)OCC)c(Nc3ccc(N4CCOCC4)cc3)c2c1	i	-0.44
81	O=C1CC(N2CCC(O)(c3ccc(Br)cc3)CC2)C(=O)N1c1ccc(Cl)cc1 (stereo unspecified)	i	0.57
82	CCOC(=O)c1ccc(NC(=O)CCc2nnc3ccc(N4CCN(C)CC4)nn23)cc1	i	-0.47
83	CC12CCC(=O)N1C(C(=O)Nc1ccc(Cl)c(Cl)c1)CS2 (stereo unspecified)	i	-0.06
84	CC(=O)N1CCC(=NNc2ccc(S(N)(=O)=O)cc2[N+](=O)[O-])CC1	i	0.06

Additional entries
#	smiles	KCNQ2 inh	KCNQ2 inh baseline
85	CCN(CCNC(=O)C1CC(=O)N(CCc2ccccc2)C1)c1ccccc1 (stereo unspecified)	i	1.03
86	CC(=O)c1c(C)[nH]c(C(=O)N(C)C(c2ccccc2)c2ccccc2)c1C	i	-0.51
87	COc1cccc(NC(=O)c2ccco2)c1	i	-0.04
88	COc1ccc2cc(C(C)C(=O)N3CCC(C)CC3)ccc2c1 (stereo unspecified)	i	0.37
89	Cc1cccc(C(=O)N(Cc2nc3ccccc3c(=O)[nH]2)C2CCCC2)c1	i	-0.36
90	COc1cc2nc(N3CCN(c4cc(C)ccc4C)CC3)nc(N)c2cc1OC	i	1.63
91	CCCNC(=O)/C(=C/c1cn(S(=O)(=O)N(C)C)c2ccccc12)NC(=O)c1ccc(OC)cc1	i	-0.26
92	CCCC(=O)OC/C(O)=C(\C#N)c1nc2ccccc2[nH]1	i	0.22
93	Cn1cc(C(=O)N/N=C/c2ccc([N+](=O)[O-])cc2)c2ccccc21	i	0.41
94	O=C(Nc1cc2c3c(c1)C1CCCC1CN3CC1CCCC21)c1ccccc1 (stereo unspecified)	i	-1.41
95	CCc1cccc(C)c1NC(=O)CSc1ncn[nH]1	i	-0.38
96	COc1ccc(S(=O)(=O)NCc2ccccn2)cc1Br	i	0.42

(next part)
#	smiles	KCNQ2 inh	KCNQ2 inh baseline
97	CCOC(=O)CNC(=O)CSc1nnc(NC(=O)c2ccc(S(=O)(=O)N3CCOCC3)cc2)s1	i	0.85
98	CCOC(=O)CSc1cc(-c2ccccc2)nc2ncnn12	i	0.13
99	Cc1ccc(C)c(OCCC(=O)NNC(=O)c2ccccc2F)c1	i	-0.45
100	CC1CCCCN1CCNC(=O)c1cc2c(-c3ccccc3F)nn(C)c2s1 (stereo unspecified)	i	2.08
101	Cc1cc(C)c(/C=C2\C(=O)Nc3ccccc32)[nH]1	i	22.1
102	O=C(Cn1nnc(-c2ccc(F)cc2)n1)OCC(=O)c1ccccc1	i	1.29
103	CCOC(=O)c1c(-c2ccccc2)csc1NC(=O)CSc1nncs1	i	0.04
104	CS(=O)(=O)N1CCc2cc(C(=O)Nc3ccc(O)cc3)ccc21	i	0.72
105	CCCNC(=O)CS(=O)Cc1nc(-c2ccccc2C)oc1C (stereo unspecified)	i	-0.49
106	CC1CCCN(CCCOc2ccc(Br)cc2Cl)C1 (stereo unspecified)	i	1.73
107	O=C(N1CCCCCC1)n1c(Cc2ccccc2)nc2ccccc21	i	1.1
108	CCCC(=O)Nc1cccc(NC(=O)c2ccc3c(c2)OCO3)c1	i	0.45

(next part)
#	smiles	KCNQ2 inh	KCNQ2 inh baseline
109	CCOCCCNc1nc2c([nH]1)c(=O)n(C)c(=O)n2C	i	-1.57
110	O=C(Cn1cc2c(n1)CCCC2)NCc1ccccn1	i	1.8
111	CS(=O)(=O)N1CCN(c2ccccc2NC(=O)Nc2cccc(Cl)c2)CC1	i	0.8
112	Cc1ccc(NC(=O)c2cc(N3C(=O)C=CC3=O)ccc2Cl)cc1C	i	0.19
113	COc1ccc(S(=O)(=O)Nc2cccc(NC(C)=O)c2)cc1	i	3.36
114	CCC12CC3CC(C1)CC(C(=O)Nc1nn[nH]n1)(C3)C2	i	-0.12
115	Clc1ccc2nc(CSc3ncn[nH]3)cn2c1	i	-0.66
116	CC(C)C(OC(=O)c1cccs1)C(=O)NC1CCCCC1 (stereo unspecified)	i	0.06

3 compounds drawn at random from those above, as already listed:
#	smiles	KCNQ2 inh	KCNQ2 inh baseline
111	CS(=O)(=O)N1CCN(c2ccccc2NC(=O)Nc2cccc(Cl)c2)CC1	i	0.8
109	CCOCCCNc1nc2c([nH]1)c(=O)n(C)c(=O)n2C	i	-1.57
116	CC(C)C(OC(=O)c1cccs1)C(=O)NC1CCCCC1 (stereo unspecified)	i	0.06
